High-throughput results from PubChem BioAssay.
TsaE inh – YjeE (TsaE) inhibition, E. coli. P0AF67. purified YjeE, fluorescence polarisation of a bound ADP probe. 0.05% of 71,000 active. Potency, µM; active = well fitted falling curve; inconclusive = weaker or top-dose-only fall, or a rising curve; inactive = flat or poorly fitted curve;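 note: top concentration of the series not given in the record; excess ADP was the control for the full effect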
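Purified YjeE (10 uM) with BODIPY Texas Red-labeled ADP probe (2 uM); compounds pin-transferred, 15 min at room temperature. Binding inhibition read as decreased fluorescence polarization; ADP titration as control.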
PK Bst – alters activity of Bacillus stearothermophilus pyruvate kinase; AID 361; partly purified Bacillus stearothermophilus pyruvate kinase, luminescence ATP production; ribose 5-phosphate activator present at AC10; 1.2% of 51,000 active; Potency, µM; in the data active means potency below about 11 µM; inconclusive means mostly about 12 µM to 25 µM; inactive means weaker than that;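 the screen sought inhibitors and activators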;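 note: potency is the fitted concentration of half-maximal effect; scaled between full activation by ribose 5 phosphate and full inhibition by luteolin; about four in five hits inhibit and the cells do not say which; series up to 57 µM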
* marks the source's active call; other numbers are inactive results; i = inactive; x = no result given. Some of the compounds tested; rates above refer to the full screens.

Structure	TsaE inh	PK Bst
CC(C)C(=O)Nc1ccc(N2CCN(S(C)(=O)=O)CC2)cc1	i	>57
CCOC(=O)Nc1sc(C(=O)N(CC)CC)c(C)c1C(=O)OCC	i	>57
Cc1ccc2c(c1)nnn2C1CCN(S(=O)(=O)c2cccc(S(=O)(=O)N(C)C)c2)CC1	i	>57
Cn1c(=O)n(CCOc2ccccc2Cl)c2ccccc21	i	>57
O=C(c1cc2n(n1)C(C(F)(F)F)CC(c1ccco1)N2)N1CCc2ccccc2C1 (centres undefined)	i	>57
CCN1CCCC1CNC(=O)Cn1cc2c(n1)CCC(C)C2 (centres undefined)	i	x
O=C(NCCSc1c[nH]c2ccccc12)c1ccco1	i	x
CSCCC(NC(N)=O)C(=O)NCc1ccccc1Cl (centres undefined)	i	>57
CC(=O)N1CSCC1C(=O)N1CCN(c2ccc(N3CCOCC3)nn2)CC1 (centres undefined)	i	x
CC(CNS(=O)(=O)c1cc(Cl)ccc1Cl)CN(C)C (centres undefined)	i	>57
Cc1ccccc1Cn1nc(C)c(NC(=O)c2nc3n(n2)C(C(F)F)CC(C)N3)c1C (centres undefined)	i	>57
COCCn1nnnc1SCC(=O)c1ccc(F)cc1	i	>57
Cc1occc1-c1nnc(SCC(=O)N2CCc3ccccc32)o1	i	>57
CC1CC(C)CN(CCCNC(=O)c2cn(C)c3ccc(S(=O)(=O)N4CCCC4)cc3c2=O)C1 (centres undefined)	i	>57
COc1cccc(-n2c(=O)[nH]cc(C(=O)Nc3ccc(NC(C)=O)cc3)c2=O)c1	i	x
COc1ccc(S(=O)(=O)N2CCCC(C(=O)Nc3cccnc3)C2)cc1Cl (centres undefined)	i	>57
CCOC(=O)C1=C(C)NC(=O)NC1c1ccc(OC)c(Cl)c1 (centres undefined)	i	>57
CN=C(Nc1ccc2c(c1)OCO2)SC1CC(=O)N(c2ccccc2)C1=O (centres undefined)	i	>57
CC1(C)CC(=O)C(C(=O)CCCCC(=O)C2C(=O)CC(C)(C)CC2=O)C(=O)C1	i	>57
Nc1nc(N2CCOCC2)nc(N(c2ccccc2)c2ccccc2)n1	i	x
CC[n+]1ccc(C)c2cc(S(=O)C(F)(F)F)ccc21 (centres undefined)	i	>57
CCN(CC)C(=O)c1cc2c(=O)n3cccc(C)c3nc2n1C	i	>57
CC(C)OC(=O)C(CC(=O)O)NCc1ccccc1 (centres undefined)	x	>26
COc1cc(C)c(S(=O)(=O)N2CCN(C)CC2)cc1C	i	>57
O=C(CSc1ncn(-c2ccccc2)n1)c1cccs1	i	>11
CN(C)c1ccc(C(=S)N2CCN(c3ccccc3)CC2)cc1	i	>57
O=C(O)c1cccc([N+](=O)[O-])c1	i	x
Cc1c(N=Cc2ccncc2)c(=O)n(-c2ccccc2)n1C	i	>57
COc1ccc2nc(NCN3C(=O)c4ccccc4C3=O)sc2c1	i	x
COCCN(C(=O)CCC(=O)Nc1ccccn1)C(C(=O)NC1CCCC1)c1ccc(OC)cc1 (centres undefined)	i	>57
O=C(NCCCCO)C(F)(F)C(F)(F)C(F)(F)C(=O)NCCCCO	i	>57
CN1CC[C@@]2(CCN3CCc4c(oc5ccccc45)[C@@H]3C2)N(C)C1=O	i	x
Cc1ccccc1OCC(=O)NCCN(C)C	i	>57
COCc1[nH]nc2c1C1(CCSCC1)C(C#N)=C(N)O2	i	>57
COCCn1c(=O)c(-c2cn(C)c3ccccc23)nc2cnc(N3CCOCC3)nc21	i	x
Cc1cccc(-n2ncc3c(NCc4ccc5c(c4)OCO5)ncnc32)c1	i	>57
CCN(CC)S(=O)(=O)c1ccc(-c2nnc(SCC(=O)c3ccc(OC)cc3)o2)cc1	i	>57
Cc1ccc(CC2CC(=O)N(c3ccncc3)C2=O)cc1 (centres undefined)	i	>57
CCOCC(=O)Nc1cccc(NC(C)=O)c1	i	>57
COc1cccc(C2=CC(c3ccc(N(C)C)cc3)n3ncnc3N2)c1 (centres undefined)	i	>57
CCCC(c1nnnn1Cc1ccco1)N1CCN(C2CCCC2)CC1 (centres undefined)	i	>57
COc1ccc(CCNC(=O)C2CCCN(S(=O)(=O)c3cccc4nonc34)C2)cc1OC (centres undefined)	i	>57
Cc1csc(NC(=O)CSc2nnc(-c3ccoc3C)n2Cc2ccco2)n1	i	>57
Cc1cc(=O)[nH]c(-c2ccccc2O)n1	i	x
CCN(CC)CCNC(=O)c1ccc(CS(=O)(=O)c2ccc(Br)cc2)o1	i	x
CN(C)c1ccc(CNn2cnnc2)cc1	i	>57
Cc1ccc2c(c1)[nH]c1c(=O)n(CCCN3CCOCC3)cnc12	i	>11
CCOC(=O)C1CCN(c2nc3ccccc3nc2C(C#N)C(=O)OC(C)COC)CC1 (centres undefined)	x	5.6*
C=CCNC(=O)C(C)Sc1ccc(Cl)cc1 (centres undefined)	i	>57
CC(=O)Cc1nsc(NC(=O)c2ccc(COc3ccc(C)cc3)o2)n1	i	>57
CCOc1ccc(OCC)c(NC(=O)CSc2nc3ccccc3c(=O)n2C)c1	i	>57
O=C(CSc1nnc(-c2ccco2)n1CC1CCCO1)c1ccccc1 (centres undefined)	i	>57
O=C1c2ccccc2C(=O)N1c1ccccc1S(=O)C(F)(F)F (centres undefined)	i	>57
Cc1ccccc1CN1CCN(C(=O)c2cccc(F)c2)CC1	i	>57
O=C(Nc1cccnc1)C1(F)C(F)(F)C(F)(F)C(F)(F)C(F)(F)C1(F)F	i	>57
CN(C)C(=O)CSc1nc2ccccc2c(=O)[nH]1	i	>57
CC(C)(C)n1nnnc1C(c1ccccc1)N1CCc2ccccc2C1 (centres undefined)	i	>57
Cc1cc(-n2ccc(=O)[nH]c2=O)nc(-c2ccccc2)n1	i	x
COc1cccc(/C=C2/CN(C)CC3=C2OC(N)=C(C#N)C3c2cccc(OC)c2)c1 (centres undefined)	x	>26
COc1ccc(NC(=O)CSc2nncs2)cc1OC	i	>57

Other results
Structure	TsaE inh	PK Bst
CN1CCN(c2ncc3ncc(=O)n(CCc4ccccc4)c3n2)CC1	i	x
Cc1ccc(S(=O)(=O)N2CCCC2C(=O)O)cc1 (centres undefined)	i	>57
COc1ccc(OCC(O)Cn2c(=N)n(CCN3CCCCC3)c3ccccc32)cc1 (centres undefined)	i	>57
O=c1c(-c2ccccc2)coc2c(CN3CCCC3)c(O)ccc12	i	>57
COc1cc2c(cc1NC(=O)CSCC(=O)O)oc1ccccc12	i	i
CC1CCCCN1CCNC(=O)C1CC(=O)N(c2ccc(F)c(Cl)c2)C1 (centres undefined)	i	>57
COc1ccc(NC(=O)C23CCC(C2)C(C)(C)C3=O)cc1 (centres undefined)	i	>57
Cc1nc2nc3c(cn2n1)C(=O)CC(c1ccccc1)C3 (centres undefined)	i	>57
N#Cc1cn(-c2ccccc2)nc1-c1ccccc1	i	>57
CC(C)(C)c1ccc(NC(=O)COC(=O)C2=COCCO2)cc1	i	>57
O=C(Nc1ccccc1)N1CCC(c2nc(-c3ccc(S(=O)(=O)N4CCOCC4)cc3)no2)CC1	i	>57
Cc1ccc(CNC2=NCCCCC2)n1C	i	>57
Cc1ccc(C)c(C(=N)c2ccccc2Cc2ccccc2)c1	i	x
Cc1ccnc(SCCn2c(Br)nc3c2c(=O)n(C)c(=O)n3C)n1	i	>57
FC(F)(F)c1cc(-c2ccco2)nc(-n2nc(C(F)(F)F)cc2C2CC2)n1	i	>57

Structures from the list above that contain a COOH group, in the order listed:
Structure	TsaE inh	PK Bst
CC(C)OC(=O)C(CC(=O)O)NCc1ccccc1 (centres undefined)	x	>26
O=C(O)c1cccc([N+](=O)[O-])c1	i	x
Cc1ccc(S(=O)(=O)N2CCCC2C(=O)O)cc1 (centres undefined)	i	>57
COc1cc2c(cc1NC(=O)CSCC(=O)O)oc1ccccc12	i	i

Next section:
Structure	TsaE inh	PK Bst
Cc1ccc(Cn2ccc(NC(=O)CCSc3nc(-c4ccco4)cc(C(F)(F)F)n3)n2)cc1	i	>57
COc1cccc2sc(N)nc12	i	x
COc1cccc(Oc2cn[nH]c2-c2ccc(O)cc2O)c1	i	>57
CCCCn1c(SCC(=O)N2CC(=O)Nc3ccccc32)nnc1-c1ccoc1C	i	>57
CCNc1nc(NCC)nc(OCCNS(=O)(=O)c2cc(C)ccc2C)n1	i	x
CCCc1cc(=O)n2[nH]c(C)nc2n1	i	>57
COCCCn1c2nc3ccccc3nc2c2c(=O)n(-c3ccccc3OC)cnc21	i	>57
O=C(CSCSCC(=O)NCC1CCCO1)NCC1CCCO1 (centres undefined)	i	>57
O=c1c(-c2cccs2)nc2cnc(N3CCNCC3)nc2n1C1CC1	i	x
CC(=O)OCC1=C(C(=O)O)N2C(=O)[C@@H](NC(=O)Cc3cccs3)[C@H]2SC1	x	>26
COc1cccc(C(CC(=O)NCCN2CCOCC2)NS(=O)(=O)c2ccc(C)cc2)c1OC (centres undefined)	i	>57
O=C(COc1ccccc1)Nc1nn[nH]n1	i	>57
CCCn1nc(NS(C)(=O)=O)c2cc3cccc(C)c3nc21	i	>57
COc1cccc(-c2nc(S(=O)(=O)c3ccccc3)c(N3CCOCC3)o2)c1	i	>57
C=C1CSc2nc(=O)c3c4c(sc3n21)CCCC4	i	x

Fetched by structure from the entries so far, 2 records:
Structure	TsaE inh	PK Bst
O=C(COc1ccccc1)Nc1nn[nH]n1	i	>57
COc1cc(C)c(S(=O)(=O)N2CCN(C)CC2)cc1C	i	>57

Next structures:
Values run as follows: TsaE inh | PK Bst
CCOC(=O)c1c(C)[nH]c(C(=O)COC(=O)c2ccccc2NC(=O)c2ccco2)c1C
 : i | >57
Cc1occc1C(=O)Nc1cccc(C(=O)NCc2ccccc2)c1
 : i | >57
O=C1CC(c2ccccc2)CC(O)=C1C=NCCCN1CCOCC1 (centres undefined)
 : i | >57
CC1(C)Nc2ccc(O)cc2-c2c1ssc2=S
 : x | >26
CCOC(=O)C1CCN(C(=O)C2CCN(S(=O)(=O)c3c(C)noc3C)CC2)CC1
 : i | >57
COc1ccc2nc(NC(=O)c3cnccn3)sc2c1
 : i | i
O=C(Cn1nnc(-c2ccc(S(=O)(=O)N3CCCC3)cc2)n1)Nc1ccccc1-n1cccc1
 : i | >57
CN1C(=O)N(C)C2(c3ccccc3)NC(=O)NC12c1ccccc1 (centres undefined)
 : i | >57
CC(=O)Nc1ccc(S(=O)(=O)Nc2nc3n(n2)C(c2ccccc2)CC(=O)N3)cc1 (centres undefined)
 : x | >26
Cc1c(S(=O)(=O)Nc2ccc3c(c2)OCCO3)c(=O)n(C)c(=O)n1C
 : i | x
O=C(Cc1c(F)cccc1Cl)NCC1CCCO1 (centres undefined)
 : i | >57
CN1CCN(C(=O)c2cc3c(ccc4ccccc43)oc2=O)CC1
 : i | >57
CCOc1ccc2c(c1)sc1nc(C(=O)OC)cc(=O)n12
 : i | x
CN(C1CCCCC1)S(=O)(=O)c1ccc(S(=O)(=O)N2CCCC2)cc1
 : i | >57
O=C(C1CCC1)N(CCc1ccccc1)Cc1nc2ccccc2c(=O)[nH]1
 : i | >57

The closing 2 records of the part before are carried over, then new ones follow:
Values run as follows: TsaE inh | PK Bst
CN(C1CCCCC1)S(=O)(=O)c1ccc(S(=O)(=O)N2CCCC2)cc1
 : i | >57
O=C(C1CCC1)N(CCc1ccccc1)Cc1nc2ccccc2c(=O)[nH]1
 : i | >57
O=C(Cn1cnc2c(cnn2-c2ccc(F)cc2)c1=O)OCc1ccccc1
 : i | >57
c1ccc(Cn2nnnc2C(c2cccs2)N2CCCCCC2)cc1 (centres undefined)
 : i | >57
Cc1ccccc1-n1c(Cn2c(=O)sc3ccccc32)nnc1SCC(=O)Nc1nccs1
 : i | x
CC(C)C(=O)Nc1nnn(C)n1
 : i | >57
CN(C(=O)CN1CCC(NC(=O)C2CCCCC2)CC1)C1CCCCC1
 : i | >57
CC1=C(C(=O)OC(C)C)C(C)C(C(=O)OC(C)C)=C(C)N1
 : i | >57
CC(C)Oc1ccc(C2NC(=O)NC2=O)cc1 (centres undefined)
 : i | >57
Fc1cccc(-c2cc3nc4c(c(N5CCOCC5)n3n2)CCCC4)c1
 : i | i
CC(C)C1=C2CCCCC2NC(=O)N1 (centres undefined)
 : i | >57
CCOC(=O)C1CCCN(c2c(NCCCN3CCCC(C)C3)c(=O)c2=O)C1 (centres undefined)
 : i | x
CC(=O)NC12CC3CC(C1)CC(C(=O)OCC(=O)Nc1ncc(Cl)c(C)c1Cl)(C3)C2
 : i | >57
CCCn1c(SCC(=O)NCc2ccco2)nnc1C(C)C
 : i | >57
COC(=O)CCC(=O)Nc1cccc(Cl)c1
 : i | >57
COc1ccccc1NC(=O)CN1CCC(n2c(C)nc3cc(F)ccc32)CC1
 : i | >57
COc1ccccc1NC(=O)CC1C(=O)NCCN1C(=O)Nc1ccc(Cl)c(Cl)c1 (centres undefined)
 : i | >57

Single entries from the entries so far.
COc1ccccc1NC(=O)CC1C(=O)NCCN1C(=O)Nc1ccc(Cl)c(Cl)c1 (centres undefined) | PK Bst = >57
CC(=O)NC12CC3CC(C1)CC(C(=O)OCC(=O)Nc1ncc(Cl)c(C)c1Cl)(C3)C2 | PK Bst = >57
CC1=C(C(=O)OC(C)C)C(C)C(C(=O)OC(C)C)=C(C)N1 | PK Bst = >57
COC(=O)CCC(=O)Nc1cccc(Cl)c1 | PK Bst = >57

Next part.
Values run as follows: TsaE inh | PK Bst
COc1cccc(-c2cc(C(=O)N3CCCCCC3)no2)c1
 : i | x
CC(=O)c1c(C)nc2nonc2c1N
 : i | >57
CSc1cccc(NC(=O)CN(c2ccc(C)cc2C)S(C)(=O)=O)c1
 : i | x
CCOc1ccc(C2N(c3ccc(F)cc3)C(=O)C3CCCN32)cc1 (centres undefined)
 : i | x
